Screening results deposited in PubChem BioAssay by NMMLSC.
Bead autofluor: flagged as autofluorescent in microsphere protease counterscreen; compound autofluorescence counterscreen, microsphere flow cytometry; stronger effect = higher value; fluorescence intensity (test concentration not listed); 360,000 tested, 3.1% active;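 active = at least 3 SD above the mean of all compounds, about 16000 in these data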;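 also: 100 nL of 1 mM stock went into each well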
Active calls of the source: *.

molecule	Bead autofluor
c1ccc(Cn2ccnc2C2OCCO2)cc1	3663
CC(=O)Nc1cnc(-c2ccc(O)cc2C)cn1	3958
O=C(c1[nH]c(C(F)(F)F)nc1-c1ccccc1)N1CCN(CCN2CCOCC2)CC1	4332
C[C@@H]1COc2cccc(N3CCC[C@@H]3CO)c2S(=O)(=O)N1	5431
Cn1c(=NC(=O)CS(=O)(=O)c2ccccc2)sc2cc(F)ccc21	3086
C[C@@H]1CCCCO[C@@H](CN(C)Cc2ccccc2)[C@@H](C)CN([C@H](C)CO)C(=O)c2cc(N(C)C)ccc2O1	3360
CC(C)N1CCCC(C)(C(=O)Nc2ccc3c(c2)OCO3)C1 (stereo unspecified)	3663
COc1ccccc1CCn1cnc(-c2ccc(Br)cc2)c1C(C)C	6791
CC1(C(=O)NS(=O)(=O)c2ccc(C#N)cc2)CCN1C(=O)Cc1cc(F)ccc1F (stereo unspecified)	4050
C#CCN(CC(=O)OCC)S(=O)(=O)CCNC1CC1	5613
CC(C)C[C@@H](CN1CCC[C@@H]1CN1C(=O)C(=O)NC[C@@H]1Cc1ccccc1)N1C[C@H](Cc2ccccc2)N(CC2CCCCC2)C(=O)C1=O	4156
CC1=C(C(=O)N(C)C)CC(CC(=O)NCCc2ccccn2)C(=O)N1CCCN1CCCC1=O (stereo unspecified)	3694
COc1ccc(NC(=O)C2Cc3c(-c4ccccc4Oc4ccccc4)ccnc3O2)cc1OC (stereo unspecified)	3430
O=C(COC(=O)Cc1c[nH]c2ccccc12)Nc1cccc(Br)c1	3987
Fc1ccc(-c2nc3c4ccccc4ccn3c2Cc2ccsc2)cc1	5806
O=C1NC[C@H](CCCCN2CCN(CCc3ccccc3)C(=O)C2=O)N(Cc2ccccc2)C1=O	6028
O=c1cc(-c2ccccc2)oc2c1CCCC2	6061
CCCCc1c(O)nc(SCC(=O)Nc2ccc(OC)cc2)n(-c2ccc(C)c(C)c2)c1=O	2986
COc1ccc(S(=O)(=O)N2CCN(C(=O)c3ccc(COc4ccccc4)o3)CC2)cc1	3101
CCOC(=O)C1C(C(=O)OCC)C2C(=O)C3C(C(=O)OCC)C(C(=O)OCC)C3C(=O)C12 (stereo unspecified)	3663
CCC(CC)C(=O)N(C)c1c(C)nc2c(OCc3ccc(C#N)cc3)cccn12	2875
O=C(Nc1cccc2ccccc12)c1csc([C@@H]2C[C@H](O)[C@@H](CO)O2)n1	3752
Cc1nn(-c2ccccc2)c(C)c1C(=O)OCC(=O)Nc1ccc(C(N)=O)cc1	3966
CCCc1ccc(C(O)c2ncc(-c3ccccc3F)[nH]2)cc1 (stereo unspecified)	3704
CCc1ccccc1Oc1nc2cc(-c3cccc(OC)c3)sc2c(=O)n1C	3727
Cc1ccc(C(=O)COC(=O)CN2C(=O)C3CC=CCC3C2=O)cc1C (stereo unspecified)	3918
COc1ccc(S(=O)(=O)N2CCCC(c3cc(C(=O)NCc4cccnc4)no3)C2)cc1 (stereo unspecified)	3094
Cc1nc(-c2ccccc2)sc1C(=O)NS(=O)(=O)c1ccc(CN2CCN(c3ccccc3)CC2)cc1	6044
CCNC(=O)C1(C)CCCN(Cc2ccc3ccccc3c2Br)C1 (stereo unspecified)	3758
COCc1cccc(-c2csc(C(O)c3ccc(OC)cc3)n2)c1 (stereo unspecified)	3673
O=C(NCc1cccnc1)C(=O)NCC1OCCCN1S(=O)(=O)c1cc(F)ccc1F (stereo unspecified)	3405
CC1(C(=O)NC2CCCC2)CCC(=O)N1CCOc1ccccc1 (stereo unspecified)	4361
COCCCN1C(=O)C(CC(=O)NCC2CCCCC2)CC(C(=O)N(C)C)=C1C (stereo unspecified)	3640
O=C(COC(=O)c1cccc(S(=O)(=O)N2CCCC2)c1)Nc1ccc(Cl)cc1	3883
CCCS(=O)(=O)NC(=O)C1(C)CCN(C(=O)c2ccc(OC)c(F)c2)C1 (stereo unspecified)	3157
CCCCn1nnnc1C(c1ccccc1)N1CCN(c2ncccn2)CC1 (stereo unspecified)	6036
CN1OC[C@@H]2CN(C(=S)NCCc3ccccc3)[C@H](c3ccc(-n4ccnc4)cc3)C[C@@H]21	5824
Cc1csc(=O)n1CCC(=O)OCC(=O)Nc1ccc(N2CCOCC2)cc1	3755
COc1ccc(-c2cc3nc(NCc4ccc(NC(C)=O)cc4)n(C)c(=O)c3s2)cc1OC	2887
CCOC1=C2CN(S(=O)(=O)c3ccc(Cl)cc3)[C@H](c3ccccc3)C[C@@H]2N(S(=O)(=O)c2ccc(C)cc2)[C@H](c2ccccc2)C1	5605
CCOC(=O)C1=CCN(S(=O)(=O)c2ccc(C)cc2)C1c1cccc(F)c1 (stereo unspecified)	3932
Cc1c(C(=O)NCc2ccc(C(F)(F)F)cc2)sc(=O)n1Cc1ccc(S(=O)(=O)N(C)C)cc1	3532
CC(C)c1ccc(Nc2ncc3c(n2)CCN(C(=O)NC2CCCCC2)C3)cc1	4449
Nc1[nH]c(C(=O)c2ccccc2)c(-c2ccccc2Cl)c1C(=O)c1ccccc1	5865
CNc1ncnc2c1ncn2[C@H]1CN(Cc2ccccc2)C[C@@H](CO)O1	4021
Cc1ccc(C(=O)NCCN2CCC(n3c(=O)[nH]c4ccccc43)CC2)cc1	5834
COc1cccc(OCc2cc(C(=O)N(C)C3CCCCC3)no2)c1	3698
COc1cccc(Cn2c3ccc(NC(=O)CCc4ccc(F)cc4)cc3c(=O)n2C)c1	3657
O=[N+]([O-])c1ccc(S(=O)(=O)NCC(c2ccc3c(c2)OCO3)N2CCOCC2)cc1 (stereo unspecified)	3434
C[C@@H]1CN([C@@H](C)CO)S(=O)(=O)c2ccc(Br)cc2O[C@H]1CN(C)C(=O)Nc1ccc(C(F)(F)F)cc1	3062
CC1CCCCC1NC(=O)CSc1ncnc2sccc12 (stereo unspecified)	3916
Clc1ccccc1-c1ccc2nccn2c1	3681
NC(=O)c1cccc(Nc2nc(C(N)C3CCCCC3)cs2)n1 (stereo unspecified)	3788
O=C(CCl)N1c2ccccc2Sc2ccc3ccccc3c21	3468
CC(C)c1ccc(C(=O)N2CCCC(c3cc(C(=O)Nc4ccccc4Cl)no3)C2)cc1 (stereo unspecified)	3114
O=C(NC(c1ccc(Cl)cc1)c1cnccn1)C1CCN(Cc2cccc(C(F)(F)F)c2)CC1 (stereo unspecified)	4304
CN(C)c1ccc(-c2ccnc3c2CC(C)(C(=O)NCc2ccncc2)O3)cc1 (stereo unspecified)	3173
CC1CCC(NC(=O)c2ccc(Br)o2)CC1 (stereo unspecified)	2931
COc1ccc(Cl)cc1CC1(C)C(=O)Nc2ccc(-c3ccccc3OC)cc21 (stereo unspecified)	3461
NC(=O)N1CCN(CCCN2c3ccccc3Sc3cc(Cl)ccc32)CC1	3681

Some of the entries so far, with each value named.
Clc1ccccc1-c1ccc2nccn2c1
  Bead autofluor = 3681
NC(=O)c1cccc(Nc2nc(C(N)C3CCCCC3)cs2)n1 (stereo unspecified)
  Bead autofluor = 3788
O=C(CCl)N1c2ccccc2Sc2ccc3ccccc3c21
  Bead autofluor = 3468

The listing continues:
molecule	Bead autofluor
Cn1c(=O)c2cc(NC(=O)Nc3cccnc3)ccc2n1Cc1ccc(Cl)cc1	3754
CC1(C(=O)Nc2ccc3nc[nH]c3c2)CCN1C(=O)Cc1ccc(-c2ccccc2)cc1 (stereo unspecified)	4018
Cn1cnc(S(=O)(=O)N2CCCCC2c2cc(C(=O)Nc3ccccc3Cl)no2)c1 (stereo unspecified)	3757
Cc1cccc(C)c1NC(=O)C1c2ccccc2OCC(=O)N1CC(F)(F)F (stereo unspecified)	5583
Cc1nc(SCC(=O)N2CCNC2=O)c(C#N)c(C)c1C	3528
COc1ccc(CN2C(=O)c3ccccc3C2(C)c2nc3ccccc3[nH]2)cc1 (stereo unspecified)	5595
CC(=O)Nc1cc(-c2cccc(N)c2)cn2c(-c3ccccc3)cnc12	3600
CC(OC(=O)c1cccnc1Cl)C(=O)NC1CCCCC1 (stereo unspecified)	3061
COc1cc(OC)nc(Nc2nc(CN)cs2)n1	2945
C[C@@H]1CN([C@@H](C)CO)S(=O)(=O)c2ccc(Br)cc2O[C@H]1CN(C)C(=O)C1CCC1	3293
CCc1nc2ccc(C(=O)Nc3ccc(OC)c(OC)c3)cn2c1N(C)Cc1nccs1	3783
CC(C)COC(=O)N(C)C[C@@H]1OCc2cnnn2CCCC(=O)N([C@H](C)CO)C[C@@H]1C	2845
O=c1[nH]c2cc(Cl)cc([N+](=O)[O-])c2c2ccc(Cl)cc12	3445
O=[N+]([O-])c1ccc2c([N+](=O)[O-])ccc3c2c1CC3	3050
COc1ccccc1CNc1nc2cc(-c3ccccc3C)sc2c(=O)n1C	3799

Next part, starting with the last 6 of the part before.
molecule	Bead autofluor
C[C@@H]1CN([C@@H](C)CO)S(=O)(=O)c2ccc(Br)cc2O[C@H]1CN(C)C(=O)C1CCC1	3293
CCc1nc2ccc(C(=O)Nc3ccc(OC)c(OC)c3)cn2c1N(C)Cc1nccs1	3783
CC(C)COC(=O)N(C)C[C@@H]1OCc2cnnn2CCCC(=O)N([C@H](C)CO)C[C@@H]1C	2845
O=c1[nH]c2cc(Cl)cc([N+](=O)[O-])c2c2ccc(Cl)cc12	3445
O=[N+]([O-])c1ccc2c([N+](=O)[O-])ccc3c2c1CC3	3050
COc1ccccc1CNc1nc2cc(-c3ccccc3C)sc2c(=O)n1C	3799
Cc1nc(C(F)(F)F)ccc1C(=O)N1CCC1(C)C(=O)NS(=O)(=O)c1ccc(C#N)cc1 (stereo unspecified)	3332
COCCNc1nc(NCCCN(C)C)c2sccc2n1	3109
CC(=O)C1=CCC(c2ccc(Cl)cc2)N(S(=O)(=O)c2ccccc2)C1 (stereo unspecified)	5677
COc1ccc(NC(=O)c2cc(-c3cc(F)ccc3OC(C)C)n[nH]2)c(OC)c1	3823
Cn1c(=O)n(C)c2cc(CNC(=O)[C@H]3O[C@@H](n4cnc5c(N)ncnc54)[C@H](O)[C@@H]3O)ccc21	6577
CCCCN(C=O)c1c(CC)nc2c(OCCOc3ccc(F)cc3)cccn12	2848
COc1cc2ccc(C(C)=O)cc2cc1OC	3785
Cc1cccc(C)c1-n1nnnc1C(c1cccs1)N1CCC2(CC1)C(=O)NCN2c1ccccc1 (stereo unspecified)	5626
CC(C)N1CCCC(C)(C(=O)Nc2nccc3ccccc23)C1 (stereo unspecified)	3947
O=C(NCc1cccnc1)c1[nH]c(C(F)(F)F)nc1-c1ccccc1	5890
CC1(C(=O)O)CCCN1C(=O)c1ccccc1OC(F)(F)F (stereo unspecified)	3582
O=C(NCCCN1CCCC1)c1[nH]c(C(F)(F)F)nc1-c1ccccc1	4355
COc1cc(NC(=O)c2cc(-c3ccc(F)cc3OC(C)C)n[nH]2)cc(OC)c1OC	3569
CCn1c(SCC(=O)N2CCC(C)CC2)nc2c([nH]c3ccccc32)c1=O	3141
O=C(Nc1cccc(Cl)c1)ON1CCCCC1	3432
O=S1(=O)C[C@@H](N2CCN(c3ccccc3)CC2)[C@H](COCc2ccccc2)N1	6073
ON=Cc1ccnc2ccccc12	3777
O=C(/C=C/[C@H]1O[C@@H](n2ccc(=O)[nH]c2=O)[C@H](O)[C@@H]1O)NCC1CCCO1 (stereo partly specified)	4429
C[C@H]1CN([C@@H](C)CO)C(=O)CCCn2cc(nn2)CO[C@@H]1CN(C)S(=O)(=O)c1cccs1	3888
CCc1nc2c(OCC3COc4ccccc4O3)cccn2c1N(C)C(=O)c1cccs1 (stereo unspecified)	2970
COc1ccc(CN2C(=O)C(CC(=O)NCc3cccs3)CC(C(=O)N3CCOCC3)=C2C)cc1 (stereo unspecified)	2818
CCN(CC)C(=O)c1cccc(-c2csc(C(C)(O)c3cccc(F)c3)n2)c1 (stereo unspecified)	3840
COc1ccc(Cl)cc1Cn1c(C)c(C(=O)NCc2cccc(Cl)c2)sc1=O	5497
COc1ccc(NC(=O)N(C)[C@H]2C[C@H]3c4[nH]c5ccccc5c4CCN3C(=O)[C@H]2[C@H](C)O)cc1	3817
CCN1C(=O)[C@H]2[C@@H](c3ccc(C(F)(F)F)cc3)N[C@]3(CCCN(CC4CCCCC4)C3=O)[C@H]2C1=O	3879
CCOC(=O)Nc1ccc2c(c1)C(=NNC(=S)NC)c1ccccc1-2	3496
COC1C(=O)CCC2(CO2)C1(O)C1(C)OC1CC=C(C)C (stereo unspecified)	4208
CC(C)(C)c1ccc(CC(=O)N2CCC2(C)C(=O)NS(=O)(=O)c2cccc(Cl)c2)cc1 (stereo unspecified)	3078
CCc1csc(CNC(=O)C2CCC(=O)N(Cc3cccc(OC)c3)C2)n1 (stereo unspecified)	4017
Cc1cc(NC(=O)CS(=O)(=O)c2cn(Cc3cccc(Cl)c3)c3ccccc23)no1	3837
O=c1[nH]c(=O)n(C2OC(CO)C(O)C2O)c2c1CCCC2 (stereo unspecified)	5960
Cc1ccc([C@H]2C[C@H](O)[C@@H](n3cc(COC(=O)c4ccccc4)nn3)CN2Cc2cccs2)cc1	3589
O=C(CC[C@H]1O[C@@H](n2ccc(=O)[nH]c2=O)[C@H](O)[C@@H]1O)NCCCc1ccccc1	6412
O=S(=O)(NN=C1CCCCCCC1)c1ccccc1	3893
Cc1ccc(C)c(CC(=O)N2CCCC(c3cc(C(=O)NCc4ccccc4)no3)C2)c1 (stereo unspecified)	3637
CC1(C(=O)NS(=O)(=O)c2ccccc2Cl)CCN1C(=O)c1cccc(F)c1 (stereo unspecified)	2936
CCOc1ccc(NS(=O)(=O)c2ccc(C(=O)NCC(c3ccco3)N3CCCCC3)cc2)cc1 (stereo unspecified)	3507
COC(=O)[C@@]1(Cc2ccc(F)cc2)[C@H]2c3cc(C(=O)N(C)C)n(C)c3C[C@H]2CN1C(=O)c1ccccc1	5939
Fc1cccc(Cc2c(C3CCCCC3)nc3ccc(Br)cn23)c1	6998

This is a subset; rates above refer to the full screens.
